# Bfl-1 A1 inh – inhibitors of the anti-apoptotic protein A1, read as caspase activation; MEF A1-2A-BIM cells, Caspase-Glo 3/7 luminescence, 3 h; percent of clofoctol response, vehicle zero; AID 2462; 330,000 compounds, 0.066% hits; caspase activation, % (concentration not given with the values);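 active = over half of replicate activation scores above 10%, or exactly half above 10 with the replicate mean above 10; inconclusive = replicate mean below 10 yet half the replicates above 10; inactive = over half of replicates below 10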;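 also: wells of about 30 µL received 50 nL stock; many hits fall short of the cut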
# Ecoli growth – inhibitors of Escherichia coli growth; 330,000 compounds, 0.21% hits; OD600, 23 h; hits give low values; AID 1053175; OD600 absorbance (test concentration not listed);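 active = OD600 absorbance below the run mean of sample wells minus 3.6 SD, in any replicate, cut at about 0.56 in these data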;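 also: stock transfer was 300 nL into about 60 µL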
# Vif A3G – inhibitors of Vif binding to APOBEC3G peptide, primary screen, biochemical, TR-FRET, GST-Vif 1-94, biotin-A3G peptide, dose response retest (AID 1117319); TR-FRET GST-Vif / biotin-A3G peptide binding; higher % means a stronger effect; test concentration not given here; strong numbers were not always called active; 260,000 compounds, 0.57% hits; inhibition, %; hits with a dose series show IC50 in µM;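 active = above the screen mean plus three standard deviations and confirmed in dose response; inconclusive = results disagree or hit not tested in dose response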;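 also: Vif residues 1-94 fused to GST binding biotinylated APOBEC3G peptide 110-148; 0% = full assay without inhibitor and 100% = GST in place of GST-Vif; retest series ran down from 100 µM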
# LANA-H2A inh – blocks KSHV LANA binding to histone H2A/H2B; cell-free LANA-H2A/H2B peptide, fluorescence polarization; inhibition, % (concentration not given with the values); Q9QR71; 320,000 compounds, 0.6% hits; AID 2629; in the data active = inhibition mostly above about 10%, no sharp cut-off; inactive = mostly below about 6.7%;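 also: stock transfer was 7.5 nL into about 10 µL; 0% = median of vehicle wells and 100% = median of positive control wells; one replicate is shown; the record names a cut of 25% in any replicate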
# UCH37 DUB inh – blocks the human deubiquitinase UCH37; Q9Y5K5; purified proteasome/UCH37, Ub-AMC cleavage fluorescence; inhibition, % (concentration not given with the values); 330,000 compounds, 0.33% hits;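 active = mean of two replicates above 20%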;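 also: 0% = compound-free wells with enzyme and 100% = wells lacking proteasome; stock transfer was 100 nL into about 20 µL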
#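 system = Proteasome-associated human UCH37 deubiquitinase | amount = 0.15 nM proteasome as dispensed | medium = pH 7.4 Tris-HCl (50 mM) with ovalbumin, ATP-MgCl2, DTT | incubation = 30 min preincubation with enzyme, 25 min cleavage at room temperature | detection = AMC fluorescence 355/460 nm | read-out basis = percent inhibition | controls = no-proteasome and no-compound wells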
# HNF4A DNA FP – change in binding of human HNF4 alpha to DNA | HNF4a-FITC DNA binding, fluorescence polarization, 1 h | activity change, % at 10 µM | 360,000 compounds, 0.3% hits; in the data active = activity change above about 30%, passing the limit was not always enough;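 also: controls were the assay level and a saturating level of protein; the project sought stronger binding though the title names inhibitors; some compounds called inactive have numbers as strong as hits; positive values seem to mean higher polarization but the record does not say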
# Target sequence (P41235 whole entry, looked up): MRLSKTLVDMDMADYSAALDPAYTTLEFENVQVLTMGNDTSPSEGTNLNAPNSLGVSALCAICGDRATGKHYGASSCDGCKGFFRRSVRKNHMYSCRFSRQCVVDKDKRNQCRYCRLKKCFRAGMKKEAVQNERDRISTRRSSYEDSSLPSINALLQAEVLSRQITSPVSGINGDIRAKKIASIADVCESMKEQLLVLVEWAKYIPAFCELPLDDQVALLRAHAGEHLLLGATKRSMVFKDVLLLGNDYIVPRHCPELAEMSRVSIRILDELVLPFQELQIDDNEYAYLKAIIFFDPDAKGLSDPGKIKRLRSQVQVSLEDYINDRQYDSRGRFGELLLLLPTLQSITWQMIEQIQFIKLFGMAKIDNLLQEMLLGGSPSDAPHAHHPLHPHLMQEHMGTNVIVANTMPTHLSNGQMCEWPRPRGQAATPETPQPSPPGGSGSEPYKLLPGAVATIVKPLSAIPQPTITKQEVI
# Beta2AR agonist – human beta-2 adrenergic receptor agonism by FAP; Am2.2-beta2AR cells, FAP receptor internalization, flow cytometry; reference of the scale not given here; response, % (test concentration not listed); 340,000 compounds, 0.43% hits; AID 504454;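 active = response above a set limit, near 3 SD of response in nonfluorescent compounds, cut at about 42% in these data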;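 also: stock transfer was 100 nL into about 11 µL; a reference agonist was the positive control; negative values mostly stem from fluorescent compounds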
# Target sequence (P07550 whole entry, looked up): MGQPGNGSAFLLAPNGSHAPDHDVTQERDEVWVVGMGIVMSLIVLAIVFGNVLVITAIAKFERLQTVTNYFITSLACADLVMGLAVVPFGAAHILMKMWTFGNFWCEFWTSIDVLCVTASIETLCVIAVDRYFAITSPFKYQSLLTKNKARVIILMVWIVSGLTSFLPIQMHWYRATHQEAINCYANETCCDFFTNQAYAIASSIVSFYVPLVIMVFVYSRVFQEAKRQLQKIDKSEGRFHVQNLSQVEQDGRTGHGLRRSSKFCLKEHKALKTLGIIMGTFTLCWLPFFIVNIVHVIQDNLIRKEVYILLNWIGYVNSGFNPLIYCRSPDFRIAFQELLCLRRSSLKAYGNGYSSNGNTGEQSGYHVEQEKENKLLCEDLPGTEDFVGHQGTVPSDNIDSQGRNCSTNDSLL
# Starred values were filed as active, the others as inactive; ? = inconclusive; / = not tested or not shown; & = joins results of further samples.
SMILES,Bfl-1 A1 inh,Ecoli growth,Vif A3G,LANA-H2A inh,UCH37 DUB inh,HNF4A DNA FP,Beta2AR agonist
CSCCC(NC(=O)c1ccccc1)C(=O)NCCCn1nc(C)cc1C (stereo unspecified),1.3,0.71,-5%,2.1,2.7,4.2,-2
CC(=O)/C(C#N)=C1\NC(=O)C(Cc2cc(Cl)ccc2Cl)S1 (stereo unspecified),-0.4,0.68,3%,1.5,4.9,1.0,3
COc1ccc(S(=O)(=O)Cc2ccc(C(=O)NCCc3cc(OC)ccc3OC)o2)cc1,0.9,0.68,-7%,0.9,6.9,0.6,-3
O=C(COc1ccccc1[N+](=O)[O-])N(Cc1ccccc1)c1ccccn1,1.9,0.7,1%,-5.0,6.6,-1.4,-14
CC(C)CN(CC(C)C)S(=O)(=O)c1cc([N+](=O)[O-])ccc1N1CCCCCC1,-0.3,0.71,-2%,0.8,9.3,-0.5,52*
CSc1nc(C(=O)N2CCCC(Nc3ccc(C)c(C)c3)C2)cs1 (stereo unspecified),0.4,0.74,/,4.4,5.3,0.9,4
S=C(Nc1ccc2c(c1)OCCO2)Nc1ccc2c(c1)OCO2,0.6,0.62,>100µM*,3.3,2.0,0.8,10
Cc1cccc(NC(=O)CSc2nnc(C)c(C)n2)c1,-0.2,0.7,/,-14,2.9,-2.7,-8
Cc1cn([C@H]2C=C[C@@H](CO)O2)c(=O)[nH]c1=O,0.9&0.6,0.65,-6%&2%,4.3&-9.5&-133,1.2&0.8,-5.1&8.2,10&1
CC(=O)OCc1c(F)c(F)c(-n2nc(C)cc2C)c(F)c1F,0.4,0.71,1%,-0.7,2.0,0.5,4
COc1ccc2nc3oc(C(=O)NCc4cccs4)cc3cc2c1,0.9,0.73,-1%,0.5,-84,3.1,0
O=C(CS(=O)(=O)c1cn(Cc2ccccc2Cl)c2ccccc12)N1CCOCC1,0.2,0.71,-3%&-6%,-3.0,4.7,1.0,0
O=C(O)CN1C(=O)/C(=C/c2ccc(SCc3ccccc3)o2)SC1=S,/,0.66,/,/,13,135,9
COc1ccc(S(=O)(=O)N2CCN(CC(=O)Nc3ccc(C)c(F)c3)CC2)cc1,/,0.68,5%,/,1.2,-0.1,0
O=C(COc1ccc(Cl)cc1)N(Cc1ccccc1)c1nc(-c2ccccc2)cs1,0.5,0.71,-7%,0.6,1.8,1.9,-1
COc1nccnc1NS(=O)(=O)c1ccc(N/C=C2\CCCCC2=O)cc1,0.4,/,/,0.2,3.5,-3.2,1
CCSc1nnc(NC(=O)c2ccc(S(=O)(=O)N(C)C)cc2)s1,-0.2,0.69,-1%,4.5,-2.7,0.5,3
CCn1c(SC(C)C(=O)O)nc2sc3c(c2c1=O)CCC3 (stereo unspecified),-0.3,0.73,8.9µM*,1.3,6.2,-19,3
CCOc1cccc(C2C(C#N)=C(N)Oc3cc(C)[nH]c(=O)c32)c1OCC (stereo unspecified),-0.8,0.65,0%,5.8,1.5,-3.9,-8
CCc1cc[n+](-c2nc3ccccc3nc2C(=C=[N-])C#N)cc1,0.9,0.68,7%,2.4,7.6,9.8,1
O=S(Cc1ccc(Cl)cc1)CC(O)(c1ccccc1)c1ccccc1 (stereo unspecified),0.8,0.71,?,7.6,1.3,-3.6,3
O=C(Nc1cnc2sc3c(n2c1=O)CCCC3)c1ccc(F)cc1,-1.0,0.75,-1%,0.3,-5.8,-1.7,-9
Cc1nn(C)c(Oc2cccc(Cl)c2)c1C(=O)Nc1ccc(F)cc1,0.8,0.73,10%,-2.0,0.9,-2.0,3
Cc1csc(SC(C)C(=O)Nc2ccc(Cl)cn2)n1 (stereo unspecified),-0.2,0.69,0%,0.4,3.7,0.5,5
Cn1c(=O)c2c(nc(Br)n2Cc2nnc(N)s2)n(C)c1=O,-0.7,0.71,3%,-0.1,4.6,3.3,0
O=C(O)Cn1ncn(-c2ccc(OC(F)(F)F)cc2)c1=O,-0.1,0.69,-2%,1.4,3.9,-0.5,1
O=[N+]([O-])c1cc(/C=N/O)ccc1Sc1ccccc1,-0.1,/,?,2.9,/,-0.3,-7
COCCNC(=O)c1onc(CSc2ccccn2)c1C(=O)NCCOC,-0.5,0.68,/,2.2,1.1,3.5,3
COCCn1c(SCC(=O)Nc2ccc3c(c2)OCCO3)nnc1-c1ccncc1,-1.4,0.69,-3%,-1.8,3.9,2.8,-5
CC(=O)Cc1nsc(NC(=O)c2ccc(COc3ccccc3Cl)o2)n1,0.2,/,0%,-0.8,/,3.3,3
COc1ccc(-n2nc(C(=O)N3CCC(N4CCCCC4)CC3)c3c4ccccc4n(C)c3c2=O)cc1,-0.2,0.64,/,-0.5,-0.5,1.9,-4
CCOc1ccc(C(=O)C(C)OC(=O)Cn2cnc3c2c(=O)n(C)c(=O)n3C)cc1 (stereo unspecified),-0.4,0.68,11%,-8.1,0.9,3.8,14
CC1=C(C(=O)OC(C)C)C(c2ccc(Br)s2)NC(=O)N1C (stereo unspecified),-1.2,0.73,69%,5.4,1.4,-0.1,-7
N#C/C(=C/c1ccc(N2CCOCC2)o1)c1ccc(Cl)cc1,0.2,0.71,6%,10*,1.6,138,-332
COc1cc2c(cc1OC)CN(c1nc(-c3cccnc3)nc3ccccc13)CC2,-0.3,0.72,15%,-5.4,-3.0,5.0,-3
COc1ccc(N2CC(C(=O)Nc3nnc(SCC(=O)N4CCOCC4)s3)CC2=O)cc1 (stereo unspecified),1.4,0.73,/,-0.4,6.0,2.9,-1
Cc1ccccc1Cn1nc(C)c(NC(=O)c2sc3ccccc3c2Cl)c1C,?,0.76,-4%,1.2,0.7,-1.6,1
Cc1cc(C(F)(F)F)n2ncc(C(=O)O)c2n1,0.6,0.76,-4%,-0.8,4.6,-0.9,-3
O=C(Oc1ccc(C(=S)N2CCOCC2)cc1)c1ccc([N+](=O)[O-])cc1,0.1,0.71,/,1.8,6.4,-1.2,2
CC(=O)c1cccc(NC(=S)NCc2ccccc2)c1,0.4,0.59,-7%,-2.7,5.2,3.2,-8

# Reprinted from the part before: three entries, then new ones.
SMILES,Bfl-1 A1 inh,Ecoli growth,Vif A3G,LANA-H2A inh,UCH37 DUB inh,HNF4A DNA FP,Beta2AR agonist
Cc1cc(C(F)(F)F)n2ncc(C(=O)O)c2n1,0.6,0.76,-4%,-0.8,4.6,-0.9,-3
O=C(Oc1ccc(C(=S)N2CCOCC2)cc1)c1ccc([N+](=O)[O-])cc1,0.1,0.71,/,1.8,6.4,-1.2,2
CC(=O)c1cccc(NC(=S)NCc2ccccc2)c1,0.4,0.59,-7%,-2.7,5.2,3.2,-8
CC(=O)c1ccc(N/N=C2/CCCNC2=O)cc1,-0.1,/,/,-0.2,/,4.5,6
O=C(NCCSCc1ccccc1)c1ccc(C2SCC(=O)N2Cc2ccccc2)cc1 (stereo unspecified),0.5,0.69,76%,1.1,1.3,6.8,28
C=CCOc1cccc(C2/C(=C(\O)c3ccc(F)cc3)C(=O)C(=O)N2CCN(C)C)c1 (stereo unspecified),0.9,0.7,?,3.1,8.2,0.7,-4
CN(C)c1ccc(C(=O)Nc2nnc(-c3ccc(Cl)cc3)o2)cc1,0.5,0.74,6%,-3.2,-93,-2.0,8
Cc1ccc(S(=O)(=O)Cn2nnnc2C(c2ccccc2)N2CCN(c3ncccn3)CC2)cc1 (stereo unspecified),-0.2,0.72,-7%,2.0,2.2,0.2,-6
O=C(Nc1cccc(C(=O)O)c1)/C(=C\c1ccc(F)cc1)NC(=O)c1ccco1,-0.8,0.71,/,1.4,5.3,-0.9,-9
CN(CCc1cn[nH]c1)Cc1nc(Cc2ccccc2F)no1,-0.8,0.67,-12%,-2.2,-0.4,0.2,0
Nc1c(S(=O)(=O)c2cccs2)c2nc3ccccc3nc2n1Cc1ccccc1,-0.5,0.63,5%,5.8,-247,5.4,-1
CCN(CC)C(=O)Cn1cc(C(=O)C(=O)NCc2ccccn2)c2ccccc21,-0.7,0.68,-8%,-3.8,10,4.2,-12
CC1CCN(c2ccc3nnc(CCC(=O)NCC(C)c4ccccc4)n3n2)CC1 (stereo unspecified),0.3,0.75,/,-0.9,1.1,3.0,-11
Cc1ccccc1NS(=O)(=O)c1ccc(C(=O)N2CC(C)OC(C)C2)cc1 (stereo unspecified),0.2,0.62,9%,3.2,1.0,-0.2,12
COc1ccc(OC)c(CCNC(=O)C2CCN(c3nnc(-n4cccc4)s3)CC2)c1,-0.3,0.7,-4%,-2.9,4.9,-0.4,51*
O=S(=O)(NCCc1cn2ccccc2n1)c1ccc2c(c1)CCCC2,-0.5,0.66,4%,-6.2,0.0,0.4,-12
Cc1nc(N)c(C#N)c(-c2cccnc2)c1-c1ccccc1,0.4,0.73,-9%,-6.5,-103,-3.8,10
O=C(Nc1ccc2c(c1)oc1ccccc12)c1ccncc1,-0.7,0.75,-4%,-1.0,-32,-3.7,38
COCCCNC(=O)C[C@H]1C[C@H](C(=O)N2CCCCC2)[C@@]2(CCc3ccccc3)c3[nH]c4cc(-c5ccco5)ccc4c3CCN2C1=O,/,0.72,11%,/,-19,13,13
Cc1ccc(C(=O)OCC(=O)c2c[nH]c3ccccc23)cc1S(=O)(=O)N1CCCCC1,0.5,0.73,/,0.3,0.7,-2.5,-1
Nc1cccc2c1C(=O)N(C(=O)c1ccco1)C2=O,0.5,0.71,-2%,2.7,-201,-2.9,1
O=C1CCN1C1(C(=O)NC2CCCCC2)CCCC1,0.3,0.71,-7%,0.3,3.5,1.2,4
CCOC(=O)C1CCCN(c2c(N3CCN(C)CC3)c(=O)c2=O)C1 (stereo unspecified),0.8,0.74,12%,-1.7,8.9,2.0,-10
Cn1c(=O)c2c(ncn2CCNC2=NCCCCC2)n(C)c1=O,0.1,0.7,19%,3.6,-0.2,-3.1,-6
Oc1ccc(Br)cc1/C=N/NC(=S)NCCc1ccccc1,-0.4,/,/,-3.1,/,8.1,-3
CC(=O)c1ccccc1NC(=O)COC(=O)/C(=C/c1ccccc1)n1nnnc1C,0.5,0.72,3%,-8.9,0.2,2.6,6
COC(=O)c1sccc1NC(=O)c1ccc(C)s1,-1.0,0.7,-5%,-5.1,-1.8,-0.6,3
CC(C)CN(CCCNC(=O)CN1N=C(c2ccc(Cl)cc2)CCC1=O)CC(C)C,0.8,0.66,3%,1.9,6.3,1.2,2
Cc1cc(/C=C(\C#N)C(=O)NC2CC2)c(C)[nH]1,-2.5,0.67,2%,1.2,16,5.2,-11
Fc1ccc(Oc2cc(N3CCOCC3)nc(-c3ccccc3)n2)c(F)c1,-1.5,0.79,-1%,-3.4,0.7,1.9,-5
Cc1cccc(NC(=O)c2cccnc2Oc2ccccc2)c1C(=O)O,0.5,0.68,2%,1.9,0.5,0.7,0
COc1ccccc1CNC(=O)CC(C)C,2.1,0.66,10%,5.8,3.6,-1.6,-3
CCCCc1ccc(NC(=O)CSc2nc(=O)n(CCN(C)C)c3c2CCC3)cc1,0.0,0.64,-2%,4.4,7.0,5.0,11
COc1cccc(NC(=O)C2C3C=CC4(O3)C2C(=O)N(CCN2CCCCC2)C4C(=O)NC2CCCCC2C)c1 (stereo unspecified),0.3,0.69,/,2.4,3.2,-0.6,0
CN1C(=O)c2ccc(C(=O)Nc3ccc(Br)cn3)cc2C1=O,0.7,0.7,/,2.1,-30,0.5,-10
O=C(O)Cc1ccc(NC(=O)Nc2ccc(Br)cc2)cc1,-1.8,0.61,-4%,-0.7,2.2,0.9,0

# Source: PubChem BioAssay (several laboratories)
